# High-throughput results: PubChem BioAssay, Broad Institute
# MLL AF4-AF9 inh = blocks AF4 peptide binding to human AF9 | P42568 | 0.47% of 350,000 active | inhibition, % at 10 µM | AlphaScreen, biotin-AF4 peptide binding to FLAG-AF9;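 active = every replicate reaching a set inhibition limit, whatever the replicate mean, cut at about 25% in these data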;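 also: 0% = plate neutral control median and 100% = total signal loss; the record names both 10 and 1 µM as test concentration; the first replicate is given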
# Target sequence (P42568 whole entry, looked up): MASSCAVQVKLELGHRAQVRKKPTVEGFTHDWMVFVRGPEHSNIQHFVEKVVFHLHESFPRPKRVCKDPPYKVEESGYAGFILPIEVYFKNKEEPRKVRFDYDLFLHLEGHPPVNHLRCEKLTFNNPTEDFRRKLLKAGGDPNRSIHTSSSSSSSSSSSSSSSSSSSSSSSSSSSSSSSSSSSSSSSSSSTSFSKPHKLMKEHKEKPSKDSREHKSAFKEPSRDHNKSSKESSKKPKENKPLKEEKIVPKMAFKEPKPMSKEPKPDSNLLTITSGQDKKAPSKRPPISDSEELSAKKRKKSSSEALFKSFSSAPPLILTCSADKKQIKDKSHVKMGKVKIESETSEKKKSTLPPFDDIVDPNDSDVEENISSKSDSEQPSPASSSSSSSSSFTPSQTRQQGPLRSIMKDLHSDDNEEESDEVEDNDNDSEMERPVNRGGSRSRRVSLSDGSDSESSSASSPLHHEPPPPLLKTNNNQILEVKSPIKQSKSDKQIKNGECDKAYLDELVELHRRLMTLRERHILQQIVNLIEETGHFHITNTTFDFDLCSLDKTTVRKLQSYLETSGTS
# FGF22 binding = binders of recombinant human FGF22 by thermal shift; Q9HCT0; SYPRO orange fluorescence; percent of sucrose octasulfate shift, DMSO zero; calls only at 9.99 µM; 1.5% of 340,000 active; AID 651658;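 active = melting point raised past a set limit in the mean and every replicate; three in four hits are not shown here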
# Target sequence (Q9HCT0 whole entry, looked up): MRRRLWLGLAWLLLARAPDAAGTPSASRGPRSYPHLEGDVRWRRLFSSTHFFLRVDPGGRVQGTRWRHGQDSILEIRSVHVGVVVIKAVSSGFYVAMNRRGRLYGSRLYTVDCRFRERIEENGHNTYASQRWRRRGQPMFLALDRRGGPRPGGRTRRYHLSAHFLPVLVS
# Ecoli rRNA inh = inhibitors of bacterial rRNA selective over humanized ribosomes | E. coli WT GFP vs humanized-ribosome RFP mutants, fluorescence, 24 h; stronger effect = lower value; DMSO median 0, no signal -100 | GFP signal change (wild-type ribosome), % (test concentration not listed) | 1.6% of 350,000 active;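 active = significant combined selectivity score with lowered wild-type GFP, culture density cut under 30%, mutant RFP and density less affected; inactive = any of these conditions unmet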; also: one replicate is shown; some compounds called inactive have numbers as strong as hits
# Ecoli rRNA inh OD600 = also measured in Ecoli rRNA inh; calls as there; OD600 change, %; measured here: OD600 growth;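 optical density of the mix in the first replicate; 0 = DMSO median and -100 = no signal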
# Ecoli rRNA inh RFP = second read-out of Ecoli rRNA inh, no call of its own (marks repeat the call); RFP signal change, %; measured here: RFP humanized mutant strains;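 first replicate; 0 = DMSO median and -100 = no signal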
# Active calls of the source: *; i = inactive; · = not tested or not shown; & = joins results of further samples.
MLL AF4-AF9 inh	FGF22 binding	Ecoli rRNA inh	Ecoli rRNA inh OD600	Ecoli rRNA inh RFP	Molecule
0.0	i	0	-1	4.2	CC(C)C[C@@H]1COc2cc(N3CC[C@H](O)C3)ccc2S(=O)(=O)N1
-0.8	i	1	0	-0.2	CO[C@@H]1CN(C)C(=O)c2cc(NC(=O)c3cccc(F)c3)ccc2OC[C@H](C)N(C)C[C@H]1C
1.1&-2.8&-0.4	i	-3&4	5&2	2.0&0.4	C[C@H]1CN([C@@H](C)CO)C(=O)CCCn2nncc2CO[C@H]1CN(C)C(=O)c1ccc(N2CCN(C)CC2)cc1
-4.8	i	0	3	0.9	CC(C)NC(=O)N1CCCCN2[C@H](C1)[C@@H](c1ccc(Br)cc1)[C@@H]2CO
4.1	i	1	2	-1.5	CN1CCCCN2[C@H](C1)[C@@H](c1ccc(-c3ccc(F)cc3)cc1)[C@@H]2CO
6.9	i	1	-2	1.2	CN(C)C(=O)c1ccc(-c2ccc([C@H]3[C@@H](C#N)N(C(=O)C4CCCC4)[C@H]3CO)cc2)cc1
-2.9	i	-4	0	-3.2	O=C(C[C@@H]1C[C@@H]2c3cc(NC(=O)CC4CC4)ccc3O[C@@H]2[C@H](CO)O1)NCc1ccc(Cl)cc1
-3.9&-4.2	i	-2	7	0.5	COc1cccc(-c2cnc3c(c2)C(=O)N([C@H](C)CO)C[C@H](C)[C@H](CN(C)Cc2ccncc2)O3)c1
-1.6	i	-5	-15	-2.1	Cc1ccc(S(=O)(=O)N(C)C[C@@H]2Oc3c(NS(=O)(=O)c4ccc(Cl)cc4)cccc3C(=O)N([C@@H](C)CO)C[C@H]2C)cc1
1.1	i	-6	-17	0.3	Cc1noc(C)c1S(=O)(=O)Nc1ccc2c(c1)CC(=O)N([C@@H](C)CO)C[C@@H](C)[C@@H](CN(C)Cc1ccc(C(F)(F)F)cc1)O2
-1.5	i	10	17	2.5	Cc1cccc(CN2CCN(C3CN(Cc4cn(Cc5ccccc5)nn4)S(=O)(=O)C3)CC2)c1 (centres undefined)
-1.1	i	0	5	0.1	C[C@H](CO)N1C[C@H](C)[C@H](CN(C)Cc2ccc(C(=O)Nc3ccccc3N)cc2)Oc2c(NS(=O)(=O)c3ccccc3)cccc2C1=O
-2.7	i	3	6	-1.2	C[C@H]1CCCCO[C@@H](CN(C)S(=O)(=O)c2ccccc2)[C@@H](C)CN([C@@H](C)CO)C(=O)c2cc(NC(=O)Nc3ccc(C(F)(F)F)cc3)ccc2O1
4.7	i	4	15	-0.2	C[C@@H]1CCCCO[C@@H](CN(C)CC2CC2)[C@@H](C)CN([C@H](C)CO)C(=O)c2cc(NC(=O)CCCCCC(=O)Nc3ccccc3N)ccc2O1
0.5	i	3	2	-1.4	COc1cccc(C#Cc2ccc([C@@H]3[C@@H](CO)N(C(=O)C4CCCCC4)[C@H]3C#N)cc2)c1
0.4	i	-9	-27	-5.8	OC(c1ccc(F)cc1)c1nc(/C=C/c2ccccc2)cs1 (centres undefined)
-29	i	1	-6	-3.0	CCNC(=O)[C@H]1[C@H](CO)[C@H]2Cn3c(ccc(-c4ccccc4F)c3=O)[C@H]2N1CC1CC1
-2.0	i	-5	-2	2.1	COc1ccc(S(=O)(=O)N(C)C[C@@H]2Oc3c(NS(=O)(=O)c4ccccc4)cccc3C(=O)N([C@@H](C)CO)C[C@@H]2C)cc1
2.6	i	-2	3	-2.0	COc1ccc(NC(=O)Nc2ccc3c(c2)CC(=O)N([C@@H](C)CO)C[C@H](C)[C@@H](CN(C)S(=O)(=O)c2ccc(OC)cc2)O3)cc1
1.8	i	13	13	3.4	CSCc1cc(C(=O)NCCN2CCOCC2)c(N)s1
-4.3	i	-3	0	-0.1	C[C@@H]1CN([C@H](C)CO)C(=O)c2cccc(NC(=O)C3CC3)c2O[C@H]1CN(C)CC1CC1
1.9	i	-1	-6	0.5	COc1ccc(CN(C)C[C@H]2OCCCC[C@H](C)Oc3ccc(NC(=O)Nc4c(C)noc4C)cc3C(=O)N([C@@H](C)CO)C[C@@H]2C)cc1
0.3	i	-1	-5	-1.6	CS(=O)(=O)Nc1ccc2c(c1)[C@H]1C[C@H](CC(=O)NCc3cc(F)ccc3F)O[C@H](CO)[C@H]1O2
5.4	i	-1	-18	0.9	COc1ccc(CN(C)C[C@H]2OCCCC[C@H](C)Oc3ccc(NS(=O)(=O)c4ccccc4)cc3C(=O)N([C@@H](C)CO)C[C@H]2C)cc1
0.9	i	-2	-3	2.1	O=C(NC1CCCCC1)N[C@@H]1CC[C@@H](CCNS(=O)(=O)c2ccc(F)cc2)O[C@@H]1CO
2.9	i	-9	-5	-5.9	CCC(=O)N(C)C[C@H]1Oc2cc(-c3ccc(OC)cc3)ccc2S(=O)(=O)N([C@H](C)CO)C[C@@H]1C
0.5	i	-37	-48	-0.6	CC(O)(c1cccc(F)c1)c1nc(-c2cccc(C(F)(F)F)c2)cs1 (centres undefined)
-3.0	i	5	6	-0.3	C[C@@H]1CN([C@H](C)CO)C(=O)Cc2cc(NC(=O)Cn3cnnn3)ccc2O[C@@H]1CN(C)Cc1ccc(C(=O)O)cc1
-1.8	i	3	5	0.0	CCCS(=O)(=O)NC(=O)C1(C)CCN(C(=O)c2cc(C)oc2C)C1 (centres undefined)
-0.5	i	-12	-17	-0.2	C[C@@H]1CN([C@H](C)CO)C(=O)c2cc(-c3ccc(C#N)cc3)cnc2O[C@H]1CN(C)C(=O)Nc1ccc(C(F)(F)F)cc1
-4.2	i	0	1	-0.4	CC(C)NC(=O)N(C)C[C@@H]1Oc2ccc(NC(=O)CCCCCC(=O)Nc3ccccc3N)cc2CC(=O)N([C@H](C)CO)C[C@H]1C
1.2	i	0	-6	1.7	COCC(O)Cn1ccnc1[N+](=O)[O-] (centres undefined)
-4.1	i	-1	3	-5.2	O=C(O)C1(C(=O)O)CCC2(CCCCC2)CC1
3.2	i	2	6	-1.0	COCC(=O)Nc1ccc2c(c1)C(=O)N(C)C[C@H](OC)[C@@H](C)CN(C(=O)c1cnccn1)[C@@H](C)CO2
-0.1	i	-13	-32	6.9	CCNC(=O)C[C@H]1CC[C@@H]2[C@@H](COc3ccc(NC(=O)Nc4cccc(Cl)c4)cc3C(=O)N2C)O1
-0.4	i	2	-1	-1.6	CCC(=O)Nc1ccc2c(c1)C(=O)N(C)C[C@@H](OC)[C@@H](C)CN(C(=O)Cc1ccccn1)[C@@H](C)CO2
1.0	·	4	12	-1.2	C[C@@H]1CNC(=O)c2c(C(=O)NCc3ccc(CNC(=O)OC(C)(C)C)cc3)ncn21
-1.0	i	4	1	-0.8	Cc1cc(C(=O)Nc2cccc3c2O[C@@H](CN(C)C(=O)Nc2ccccc2)[C@H](C)CN([C@@H](C)CO)C3=O)n(C)n1
-0.5	i	-1	6	0.6	CN1CCN(C(=O)C[C@@H]2C[C@@H]3c4cc(NC(=O)NC5CCCCC5)ccc4O[C@@H]3[C@H](CO)O2)CC1
1.1	i	4	12	4.7	C[C@@H]1CN([C@H](C)CO)C(=O)c2cc(C3=CCCCC3)cnc2O[C@@H]1CN(C)Cc1ccccc1F
-2.8	i	8	5	0.2	CC(C)C(C(=O)NCc1ccccc1)N1CCN(c2ccccc2F)CC1 (centres undefined)
4.2	i	0	4	4.5	CN(C)CCCNc1nc2cc(-c3cnn(Cc4ccccc4)c3)sc2c(=O)n1C
1.3	i	2	9	-3.8	O=C(Nc1ccc2c(c1)OCCO2)c1c(Cl)cccc1Cl
-0.9	i	1	13	-2.2	COCC(=O)N(C)C[C@H]1Oc2cc(C#CC3CC3)ccc2S(=O)(=O)N([C@@H](C)CO)C[C@H]1C
-0.5	i	-33	-37	2.2	COc1ccc(NC(=O)N2CCCCN3[C@H](C2)[C@@H](c2ccc(-c4ccccc4C)cc2)[C@@H]3CO)cc1
-2.6	i	5	10	0.7	Cc1ccc(S(=O)(=O)Nc2ccc3c(c2)CC(=O)N([C@H](C)CO)C[C@@H](C)[C@H](CN(C)S(C)(=O)=O)O3)cc1
0.3	i	0	2	-1.2	CO[C@@H]1CN(C)C(=O)c2cc(NC(=O)C3CC3)ccc2OC[C@H](C)N(Cc2ccccc2)C[C@@H]1C
2.7	i	2	10	-0.6	COc1ccc(CN(C)C[C@H]2Oc3c(NC(=O)Nc4ccc(OC)cc4)cccc3C(=O)N([C@@H](C)CO)C[C@H]2C)cc1
-2.0	i	-1	1	-3.6	COc1ccc(S(=O)(=O)Nc2ccc3c(c2)C(=O)N([C@H](C)CO)C[C@H](C)[C@@H](CN(C)C(=O)NC(C)C)OCCCC[C@@H](C)O3)cc1
5.3	i	1	4	-0.9	CCOC(=O)C1=CC[C@@H](c2ccncc2)N(S(=O)(=O)c2ccc(C)cc2)C1
-3.5	i	5	9	2.3	COCCCNC(=O)C[C@H]1C[C@@]2(C(=O)OC)C(=C[C@H](C3CCCC3)O[C@@H]2C)N(Cc2ccccc2)C1=O
-1.7	i	-2	-2	0.0	C[C@@H]1CCCCO[C@@H](CN(C)S(C)(=O)=O)[C@H](C)CN([C@H](C)CO)C(=O)c2cc(NC(=O)NC3CCCCC3)ccc2O1
1.9	i	-2	3	0.4	C[C@@H]1CCCCO[C@@H](CN(C)Cc2ccc(Cl)c(Cl)c2)[C@H](C)CN([C@H](C)CO)C(=O)c2cc(NC(=O)Nc3ccc(F)cc3)ccc2O1
1.6	i	1	0	-2.1	C[C@H](CO)N1C[C@H](C)[C@@H](CN(C)C)Oc2ccc(NC(=O)CCCCCC(=O)Nc3ccccc3N)cc2CC1=O
-3.1	i	-9	-27	-6.0	CCOC(=O)C1=CCN(S(=O)(=O)c2ccc(Br)cc2)C1c1cccc(Cl)c1 (centres undefined)
15	i	-35	-47	6.2	C[C@H](CO)N1C[C@H](C)[C@@H](CN(C)Cc2ccc(Oc3ccccc3)cc2)Oc2ccc(NC(=O)c3ccncc3)cc2CC1=O
0.1	i	-6	-6	0.5	C[C@H](CO)N1C[C@H](C)[C@H](CN(C)Cc2ccncc2)Oc2ncc(-c3cccc(C(F)(F)F)c3)cc2C1=O
-0.7	i	20	7	7.4	COc1cc(N(CCCn2cnc3c(SC)ncnc32)CCCn2cnc3c(SC)ncnc32)cc(OC)c1OC
-2.5	i	2	0	-4.1	C[C@@H]1CN([C@@H](C)CO)S(=O)(=O)c2ccc(C#Cc3ccncc3)cc2O[C@@H]1CN(C)C(=O)C1CCOCC1
-0.9	i	8	12	2.0	Cc1noc(C)c1NC(=O)Nc1ccc2c(c1)C(=O)N([C@H](C)CO)C[C@H](C)[C@H](CN(C)C)OCCCC[C@@H](C)O2

# New compounds follow
MLL AF4-AF9 inh	FGF22 binding	Ecoli rRNA inh	Ecoli rRNA inh OD600	Ecoli rRNA inh RFP	Molecule
1.9	i	0	-8	-1.6	CN1[C@@H]2Cn3c(ccc(C4=CCCCC4)c3=O)[C@H]1[C@@H](C(=O)NCCc1ccccc1)[C@@H]2CO
-2.7	i	-2	0	-5.5	Cc1noc(C)c1NC(=O)N(C)C[C@H]1Oc2ccc(NC(=O)CCCCCC(=O)Nc3ccccc3N)cc2C(=O)N([C@H](C)CO)C[C@H]1C
-2.4	i	2	8	-0.8	COc1cccc(-c2ccc3n(c2=O)C[C@@H]2[C@@H](CO)[C@H](C(=O)NC4CCC4)N[C@H]32)c1
1.8	i	2	-10	3.5	O=C(C[C@@H]1C[C@H]2c3cc(NC(=O)C4CCC4)ccc3O[C@H]2[C@H](CO)O1)NCCN1CCCCC1
0.5	i	4	2	2.6	CCNC(=O)[C@H]1[C@H](CO)[C@H]2Cn3c(ccc(C4=CCCC4)c3=O)[C@H]2N1C(=O)C1CC1
4.8	i	1	-9	0.8	COc1ccc(NC(=O)N(C)C[C@H]2OCCCC[C@@H](C)Oc3ccc(NS(=O)(=O)c4ccccc4)cc3C(=O)N([C@@H](C)CO)C[C@@H]2C)cc1

# Part of the list above, set out differently.
# Values run as follows: MLL AF4-AF9 inh, FGF22 binding, Ecoli rRNA inh, Ecoli rRNA inh OD600, Ecoli rRNA inh RFP
CCNC(=O)[C@H]1[C@H](CO)[C@H]2Cn3c(ccc(C4=CCCC4)c3=O)[C@H]2N1C(=O)C1CC1
→ 0.5, i, 4, 2, 2.6
COc1ccc(NC(=O)N(C)C[C@H]2OCCCC[C@@H](C)Oc3ccc(NS(=O)(=O)c4ccccc4)cc3C(=O)N([C@@H](C)CO)C[C@@H]2C)cc1
→ 4.8, i, 1, -9, 0.8

# A few values from the list:
# Result of `COc1cccc(-c2ccc3n(c2=O)C[C@@H]2[C@@H](CO)[C@H](C(=O)NC4CCC4)N[C@H]32)c1` under Ecoli rRNA inh: 2
# Result of `CN1[C@@H]2Cn3c(ccc(C4=CCCCC4)c3=O)[C@H]1[C@@H](C(=O)NCCc1ccccc1)[C@@H]2CO` under MLL AF4-AF9 inh: 1.9
# Result of `O=C(C[C@@H]1C[C@H]2c3cc(NC(=O)C4CCC4)ccc3O[C@H]2[C@H](CO)O1)NCCN1CCCCC1` under Ecoli rRNA inh RFP: 3.5
# Result of `COc1ccc(NC(=O)N(C)C[C@H]2OCCCC[C@@H](C)Oc3ccc(NS(=O)(=O)c4ccccc4)cc3C(=O)N([C@@H](C)CO)C[C@@H]2C)cc1` under Ecoli rRNA inh: 1
# Result of `Cc1noc(C)c1NC(=O)N(C)C[C@H]1Oc2ccc(NC(=O)CCCCCC(=O)Nc3ccccc3N)cc2C(=O)N([C@H](C)CO)C[C@H]1C` under Ecoli rRNA inh OD600: 0

# Only part of the results is shown. The share of hits here may be higher or lower than overall.
